RE007 growth inh: less growth of the S. pombe RE007 Vpr strain | S. pombe RE007 Vpr strain, BacTiter-Glo ATP luminescence, 24 h; control for the full effect not named in the record | Potency, µM (doses to about 92.2 µM), for inactives: at the highest dose activity change, negative = less growth | 0.21% of 360,000 active | AID 651644; active = well fitted falling curve with a large enough effect; inconclusive = small, poorly fitted or top-dose-only effect; inactive = no such curve, though single readings can be large or run the other way;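 also: nearly all actives have a fitted effect of over 50% in size; the assay follows cell death caused by Vpr and the record does not say whether a fall means rescue or toxicity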
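Fission yeast strain RE007, carrying one chromosomally integrated HIV-1 vpr copy, was seeded at OD 0.01 in PMG+AL medium with 23 nL pinned compound. After 24 h at 30 °C and 99% humidity, viability was read by BacTiter-Glo luminescence.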
2A StopGo: FMDV 2A StopGo reporter, luciferase signal; human cells with a luciferase reporter of 2A StopGo recoding; control for the full effect not named in the record; Potency, µM (series often up to 57.9 µM), inactives show at the top dose signal change, negative = less light; 1.2% of 410,000 active; active = well fitted falling curve with a large enough effect; inconclusive = small, poorly fitted or top-dose-only effect; inactive = no such curve, though single readings can be large or run the other way; tested in HEK293T cells; also: nearly all actives have a fitted effect of over 45% in size; luciferase light after 4 h
* marks the source's active call; other numbers are inactive results; ? = inconclusive; [ ] = another dose, or the depositor's remark. % is scaled to controls: 0 for no effect and ±100 for the full control effect; potency is read from the fitted curve at half-maximal effect. Not all compounds are listed (hit frequency here may not be typical).

The opening two compounds as a preview:
Order of results: RE007 growth inh, 2A StopGo
- COc1ccc(-c2ccc(C(=O)NC3CCCCC3)c3occc23)c(C)c1
→ 6%[18.4 µM], 12%
- O=C1c2ccccc2C(=Cc2cccnc2)c2ccccc21
→ -4%, 12%

Main list (from the top)
Order of results: RE007 growth inh, 2A StopGo
- COc1ccc(-c2ccc(C(=O)NC3CCCCC3)c3occc23)c(C)c1
→ 6%[18.4 µM], 12%
- O=C1c2ccccc2C(=Cc2cccnc2)c2ccccc21
→ -4%, 12%
- CCOC(=O)C1=CN(CC2CCCCC2)CCC1=O
→ 11%, -9%
- N#CC1=C2CCCCC2(O)NC1=O (stereo not given)
→ -8%, -1%
- COc1cccc(C(O)c2nc(-c3cccc(F)c3)cs2)c1 (stereo not given)
→ -12%, 3%
- COC(=O)[C@]12CCCCC=C1N(CCC1=CCCCC1)C(=O)[C@H](CC(=O)NCc1ccc(OC)c(OC)c1)C2
→ -14%, -23%
- Nc1ncnc2c1ncn2[C@@H]1O[C@H](C(=O)N2CCCN(Cc3cccs3)CC2)[C@@H](O)[C@H]1O
→ 151%, -15%
- Nc1ccc(S(=O)(=O)Nc2nccc(/C=C/c3cccc([N+](=O)[O-])c3)n2)cc1
→ -1%, -27%
- CCC12C(=Nc3c(Cl)cccc31)C[C@@H]1CCN3C(=O)CCC[C@H]2[C@H]13 (stereo not given in full)
→ -10%, -21%
- CCCS(=O)(=O)NC(=O)C1(C)CCN(C(=O)c2sccc2C)C1 (stereo not given)
→ 11%, 2%
- OC(c1cccc(F)c1)c1ncc(-c2ccc3ccccc3c2)[nH]1 (stereo not given)
→ -11%[18.4 µM], 53%[activator]
- CCNC(=O)C1(C)CCCN(Cc2csc3ccccc23)C1 (stereo not given)
→ -8%, -19%
- COc1ccc(CCn2c(C)cc(C(=O)COC(=O)c3ccc(O)cc3O)c2C)cc1
→ 4%, ?
- O=C(CSc1nc2ccccc2c(=O)n1-c1ccc(F)c(Cl)c1)Nc1ccc2c(c1)CCC2
→ 7%, -8%
- O=C1C=C(OCCF)CC(c2ccccc2C(F)(F)F)O1 (stereo not given)
→ 0%, -10%
- CC1(c2nnnn2Cc2ccccc2)CCC(=O)N1Cc1ccco1 (stereo not given)
→ 3%, -16%
- COc1ccc(-c2csc(C(O)(c3ccccc3)C(F)(F)F)n2)cc1 (stereo not given)
→ ?, 19%
- O=C1C(c2ccccc2)=NCCN1C(c1ccc(F)cc1)c1nc2ccccc2[nH]1 (stereo not given)
→ -12%, 5%
- C#CCOCCOCCOCCNc1nc(N2CCN(C(=O)CCCCCCCCCCNC(=O)[C@H](CCCCN)n3cc(C[C@@H](C)CC)nn3)CC2)nc(N2CCN(C(=O)CCCCCCCCCCNC(=O)[C@H](CCCCN)n3cc(C[C@@H](C)CC)nn3)CC2)n1
→ 16%, 40µM*
- CSCCC(c1nnnn1-c1c(C)cccc1C)N1CCN(C/C=C/c2ccccc2)CC1 (stereo not given)
→ -9%, -16%
- C[C@@H](CO)NC(=O)c1[nH]cnc1C(=O)Nc1ccc(CNC(=O)OC(C)(C)C)cc1
→ 20%, ?
- Cc1c(C(=O)NCc2cccc(Cl)c2)sc(=O)n1Cc1ccc(F)cc1
→ -10%[18.4 µM], -21%
- Cc1ccc(F)c(S(=O)(=O)NC(=O)C2(C)CCN2C(=O)c2sccc2C)c1 (stereo not given)
→ 6%[18.4 µM], -8%
- COC(=O)c1ccc2nc(C3CCCCC3)c(Cc3cccc(F)c3)n2c1
→ -2%, 8%
- OC(c1cccc(Cl)c1)c1nc(-c2cnc3ccccc3c2)cs1 (stereo not given)
→ -4%[18.4 µM], 23%
- CC1(C(=O)NC2CCCCC2)CCC(=O)N1CC(F)(F)F (stereo not given)
→ 8%, -8%
- NC(Cc1ccccc1)c1csc(Nc2ccc(C(=O)NCCO)cc2)n1 (stereo not given)
→ 0%, 0%
- CCCCN1C(=O)C(CC(=O)NCc2ccco2)CC(C(=O)N(C(C)C)C(C)C)=C1C (stereo not given)
→ 12%, -8%
- CC1=C(C(=O)N(C(C)C)C(C)C)CC(CC(=O)NCC2CCCCC2)C(=O)N1Cc1ccccc1 (stereo not given)
→ -5%, -13%
- O=C(NCc1ccc(F)cc1)c1cc(C2CCCN(C(=O)c3ccc4ccccc4c3)C2)on1 (stereo not given)
→ 15%, ?
- COC(=O)C1C2CC3c4[nH]c5cc(OC)ccc5c4CCN3CC2CC(O)C1OC (stereo not given)
→ -22%, -11%
- O=c1n(Cc2ccccc2)c(O)c2n1Cc1ccccc1N=C2c1ccccc1
→ 6%, -5%
- CC(=O)Oc1ccc([C@@H]2COc3c(ccc4c3C=CC(C)(C)O4)C2)c(OC(C)=O)c1
→ 6%, 18%
- Cc1ccc(Cn2c(C(C)Nc3nc(C)cs3)nc3cc(Cl)c(Cl)cc32)cc1 (stereo not given)
→ 1%, -2%
- COc1ccc(OC(=O)N(C)C[C@H]2OCc3cnnn3CCCC(=O)N([C@@H](C)CO)C[C@H]2C)cc1
→ 6%, -2%
- CCCN1C(=O)C(=O)N(CC(=O)N2c3ccccc3NC(=O)CC2C)C1=O (stereo not given)
→ -4%, 0%
- CCCCNC(=O)C[C@@H]1C[C@@]2(C(=O)OCC)CCC=C2N(CCC2=CCCCC2)C1=O
→ 1%, 19%
- COc1ccccc1C(=O)NNC(=O)c1ccc(O)cc1
→ -3%, 7%
- O=C(Nc1ccc(C(=O)N2CCCC2)cc1)c1ccccc1
→ -22%, 39%[activator]
- COc1ccc(S(=O)(=O)N2C[C@H]3CON(C)[C@H]3C[C@H]2c2ccc(-c3cc4ccccc4o3)cc2)cc1
→ 24%, ?
- Cc1cccc(C(=O)OCC(=O)NCc2ccc(Cl)cc2)c1
→ 2%, -6%
- CCC(CC)C(=O)N(C)c1c(C)nc2c(OCC(=O)N(C)C)cccn12
→ 13%, -13%
- COCCN(C(=O)COC(=O)C12CC3CC(CC(C3)C1)C2)c1c(N)n(Cc2ccccc2)c(=O)[nH]c1=O
→ -6%, -1%
- COc1ccc(-c2csc(C(NC(C)=O)c3cccc(OC)c3)n2)cc1 (stereo not given)
→ 0%, -2%
- CCOC(=O)[C@]12CCCC=C1N(Cc1cccc3ccccc13)C(=O)[C@H](CC(=O)NCc1ccc(C)o1)C2
→ 13%, -20%
- O=S1(=O)N[C@H](Cc2ccccc2)COc2cc(N3CCSCC3)ccc21
→ 1%, 17%
- CCN1C(=O)CC(C(C)C)N(C2CCCC2)c2nc(Nc3ccc(C(=O)NC4CCN(C)CC4)cc3OC)ncc21 (stereo not given)
→ -8%, ?
- COC(=O)[C@]12CCCCC=C1N(Cc1cccc3ccccc13)C(=O)[C@H](CC(=O)NCCCN1CCCC1=O)C2
→ 0%, -20%
- O=C(NC1CC1)c1cccc2c1C(=O)c1ccc(N3CCC(N4CCCCC4)CC3)cc1S2(=O)=O
→ -8%, -2%
- COc1ccc(C(=O)NCC(c2ccco2)N2CCOCC2)cc1 (stereo not given)
→ -12%, -13%

The listing continues.
Order of results: RE007 growth inh, 2A StopGo
- O=C(NCCN1CCC(n2c(=O)[nH]c3ccccc32)CC1)c1ccccc1Cl
→ -2%, -22%
- COc1ccc(C#Cc2ccc3c(c2)O[C@H](CN(C)C(C)=O)[C@H](C)CN([C@@H](C)CO)S3(=O)=O)cc1
→ -10%, 71%[activator]
- Cc1cc2nc(-c3ccc(Cl)cc3)c(Cc3ccsc3)n2c(C)c1Br
→ -8%, -3%
- COc1ccc(CNC(=O)c2sc(=O)n(Cc3ccccc3OC)c2C)cc1
→ 7%[18.4 µM], -16%
- O=C(NC1CCCC1)C1c2ccccc2OCC(=O)N1CCCN1CCOCC1 (stereo not given)
→ 7%, -9%
- C=C1CCN([C@@H](CC(C)C)C(=O)N2CCOCC2)S(=O)(=O)c2ccccc21
→ 5%, 6%
- COc1ccc(C(C(=O)NC(C)(C)C)n2c(-c3ccc(=O)[nH]c3)nc3ccccc32)cc1 (stereo not given)
→ -22%, 0%
- O=C(Oc1ccc(-c2nnco2)cc1)c1cc(S(=O)(=O)N2CCOCC2)ccc1F
→ -17%, -14%
- C/C(=N/NC(=O)c1nnn(-c2nonc2N)c1CSc1ccc(C)cc1)c1ccncc1
→ -2%, -7%
- COCC1CCCCN1C(=O)c1cc(COc2ccc(C)c(C)c2)on1 (stereo not given)
→ -4%, 53%[activator]

5 structures from above, ordered by length of the SMILES, descending.
Order of results: RE007 growth inh, 2A StopGo
- C=C1CCN([C@@H](CC(C)C)C(=O)N2CCOCC2)S(=O)(=O)c2ccccc21
→ 5%, 6%
- C/C(=N/NC(=O)c1nnn(-c2nonc2N)c1CSc1ccc(C)cc1)c1ccncc1
→ -2%, -7%
- O=C(Oc1ccc(-c2nnco2)cc1)c1cc(S(=O)(=O)N2CCOCC2)ccc1F
→ -17%, -14%
- O=C(NCCN1CCC(n2c(=O)[nH]c3ccccc32)CC1)c1ccccc1Cl
→ -2%, -22%
- COCC1CCCCN1C(=O)c1cc(COc2ccc(C)c(C)c2)on1 (stereo not given)
→ -4%, 53%[activator]

(further entries)
Order of results: RE007 growth inh, 2A StopGo
- COC(=O)C[C@H]1C=C[C@@H](NC(=O)Nc2c(C)noc2C)[C@@H](CO)O1
→ -4%, -16%
- COc1ccccc1Cc1c(-c2cccc(Br)c2)nc2c(C)cc(Br)cn12
→ 7%, 13%
- C[C@H]1Cn2cnc(C(=O)Nc3cccc(Cl)c3)c2C(=O)N1
→ -26%, -22%
- Cc1ccc(CNc2nc(NC(C)C)nc3ccsc23)c(C)c1
→ -16%, -29%
- Cc1cccc(C)c1-n1nnnc1C(c1cccs1)N1CCN(C/C=C/c2ccccc2)CC1 (stereo not given)
→ -12%, 2%
- COC(=O)C1NC(=O)N2C(C(=O)OC)C(C)(C)S[C@H]12 (stereo not given in full)
→ -2%, -12%
- CCc1nc2ccc(C(=O)NCc3ccc(OC)cc3)cn2c1N(CC)CCN(C)C
→ 4%, 0%
- CC1c2ccccc2-n2nncc2CN1CC1CCCCC1 (stereo not given)
→ 9%, -24%
- CC(C)Cc1nnc(NC(=O)c2ccc(-n3cncn3)c([N+](=O)[O-])c2)s1
→ 16%, -13%
- COc1ccc(C(NC(=O)C2CCN(CCOc3ccccc3)CC2)c2ccccn2)cc1 (stereo not given)
→ -14%, -7%
- O=C1CCC[C@@H]2C=C[C@H](c3ccc(Br)cc3)[C@H]3CCN1[C@@H]32
→ -13%, ?
- CCC(c1nnnn1-c1ccc2c(c1)OCCO2)N1CCN(c2ccc(C(F)(F)F)cn2)CC1 (stereo not given)
→ -14%, -17%
- CC(=O)Nc1cccc(-c2ccnc3c2CC(C)(C(=O)NCCN(C)C)O3)c1 (stereo not given)
→ 0%[18.4 µM], -2%
- COc1ccc([C@H]2CC(=O)C[C@@H](CCn3cc(-c4ccccn4)nn3)O2)cc1
→ -18%, -7%
- C[C@@H]1Cn2cnc(C(=O)Nc3ccccc3)c2C(=O)N1
→ -12%, -13%
- COC(=O)C1=C(c2ccccc2)C[C@@H]2CC[C@H]1N2C(=O)N1CCCC1
→ -1%, -23%
- COC(=O)[C@H]1C[C@@]2(O)CN(S(=O)(=O)c3ccc(C)cc3)C[C@@]2(OC(=O)NCC2CCCCC2)C[C@H]1C(=O)OC
→ 2%, -2%
- O=C(NCc1cccs1)c1cc(-c2ccccc2)nn1CC1CC(c2cccc([N+](=O)[O-])c2)=NO1 (stereo not given)
→ 6%, 18%
- CCCCNC(=O)C1(C)CCN1C(=O)c1ccc2c(c1)C(C)(C)CCC2(C)C (stereo not given)
→ 2%, 0%
- Cc1noc(C)c1NC(=O)Nc1cccc2c1O[C@H](CN(C)S(=O)(=O)c1cccs1)[C@@H](C)CN([C@H](C)CO)C2=O
→ 3%, -3%
- CCCNC(=O)C1(C)CCN(Cc2ccc(Cl)c(Cl)c2)C1 (stereo not given)
→ -11%, 0%
- CCCCc1c(-c2ccccc2OC)ncn1CCc1cccc(OC)c1
→ -26%, 22µM*
- CCOC(=O)Cc1ccc(Nc2nc(NCCOC)nc3ccsc23)cc1
→ ?, ?
- C=CCSc1nnc(NC(=O)CCNC(=O)c2ccccc2Cl)s1
→ 0%, -14%
- Nc1ccn([C@@H]2O[C@H](CNCc3ccc(OCC(=O)Nc4nccs4)cc3)[C@@H](O)[C@H]2O)c(=O)n1
→ -2%, -17%
- COC(=O)c1sc(N)nc1CCNC(=O)OC(C)(C)C
→ 3%, -10%
- CC(=O)C1=CCC(c2ccccc2)N(S(=O)(=O)c2ccc(Cl)cc2)C1 (stereo not given)
→ -3%, -25%
- CCOC(=O)[C@]12Cc3cc(C)ccc3[C@H]1N(C)C(=O)c1ccccc12
→ 11%, -30%
- C=C1C(=O)[C@@]23C[C@H]4[C@@H]5[C@@]6(C)CCC[C@@]57[C@@H]2[C@@H](O)[C@@H]1C[C@H]3[C@H]7N4C6
→ 0%, 25µM*
- C[C@@H]1CN([C@H](C)CO)C(=O)c2cc(-c3ccccc3)cnc2O[C@@H]1CN(C)C(=O)C1CCOCC1
→ 11%, 12%
- CN(Cc1ccccc1)C(=O)c1ccc(NC(=O)Cc2ccc(NC(=O)C3CCN(C(=O)CCc4ccccc4)CC3)cc2)cc1
→ 14%, 0%
- NC(N)=NN=Cc1ccnc2ccccc12
→ -20%, -10%
- O=C(Nc1ccc2c(c1)OCCO2)C1c2ccccc2OCC(=O)N1CCc1ccccc1 (stereo not given)
→ 1%, 2%
